Screens deposited in PubChem BioAssay by National Center for Advancing Translational Sciences (NCATS).
VACV Venus inh: inhibitors of vaccinia virus (Venus reporter); Vaccinia virus Venus reporter expression, fluorescence; Potency, µM (series often up to 36.5 µM), inactives show at the top dose activity change, negative = inhibition, most hits filed as inhibitors; 330,000 compounds, 0.46% hits; AID 720580; active means well fitted inhibition curve with a large enough effect; inconclusive means small, poorly fitted or top-dose-only effect; inactive means no such curve, though single readings can be large or run the other way; tested in A549 cells; note: nearly all actives have a fitted effect of over 30% in size; inactives centre near -10
Vaccinia mCherry: inhibitors of vaccinia virus infection (mCherry reporter signal); AID 720579; Potency, µM (highest dose often 36.5 µM), inactives show at the top dose activity change, negative = inhibition, hits mostly inhibitors; Vaccinia virus mCherry reporter infection, fluorescence; about a quarter of the inactives have no number; 310,000 compounds, 0.63% hits; active = well fitted inhibition curve with a large enough effect; inconclusive = small, poorly fitted or top-dose-only effect; inactive = no such curve, though single readings can be large or run the other way; tested in A549 cells; note: nearly all actives have a fitted effect of over 35% in size; inactives centre near -10
Starred values were filed as active, the others as inactive; i = inactive; ? = inconclusive; nt = no result given; & = joins results of further samples; [ ] = another dose, or the depositor's remark. % is set by controls: 0 for no effect and ±100 for the full control effect; potency is the fitted concentration of half-maximal effect.

compound	Vaccinia mCherry	VACV Venus inh
CC(C)c1cc(-c2cc(C(=O)NCc3ccccc3)on2)nc(NC2CCCC2)n1	i	-25%
COC(=O)C1=C(C(=O)OC)[C@@H]2N(C)c3ccc(OC)cc3[C@@]23C[C@@H](C(=O)OC)N(C(=O)c2cc(C)oc2C)C3=N1	-3%	-26%
O=C(NC(Cc1ccccc1)C(=O)O)/C(=C\c1ccc(Cl)cc1)NC(=O)c1ccco1 (centres undefined)	-15%	4%
COc1ccc(CCC(=O)O)c(C(CC(=O)O)C(=O)O)c1OS(=O)(=O)c1ccc(C)cc1 (centres undefined)	i	-9%
COc1cc(CC(CC(=O)c2ccc3c(c2)OCO3)C(=O)O)cc(OC)c1OC (centres undefined)	i	-1%
Cc1c(Cl)cccc1NC(=O)c1cc(-c2ccccc2O)n[nH]1	nt	?
Cc1ccc(S(=O)(=O)CCC(=O)OCC(=O)NC2CCS(=O)(=O)C2)cc1 (centres undefined)	-12%	-9%
COc1ccc(CCCNC(=O)C2Cc3c(-c4ccc5c(c4)OCO5)ccnc3O2)cc1 (centres undefined)	7%	-20%
CCOC(=O)/C=C1\SCC(=O)N1CC(=O)Nc1ccc(C(C)C)cc1	-19%	-7%
CC1(C(=O)N(CC(=O)NC2CCCC2)Cc2ccc(Cl)cc2)CC(=O)N=C2C=CC=CN21 (centres undefined)	11%	-1%
O=C(O)CCc1ccc(-c2cccs2)n1Cc1ccco1	-13%	1%
COc1ccc(S(=O)(=O)Nc2ccc3c(c2)C(=O)N([C@H](C)CO)C[C@H](C)[C@@H](CN(C)S(=O)(=O)c2ccc(F)cc2)O3)cc1	i	-25%
CNc1nc(-c2ccccc2)c2sccc2n1	-17%	-6%
Cc1cc(C)c2c(n1)nn1c(N3CCN(c4ccccc4C)CC3)cc(C)nc21	-11%	-11%
CS(=O)(=O)N1CCN(c2ccccc2NC(=O)c2cc3ccccc3o2)CC1	-13%	-2%
COc1cccc(N2C(=O)CSC23C(=O)N(CC(=O)NCc2ccc(C)cc2)c2ccccc23)c1 (centres undefined)	9%	1%
COCC(=O)N1c2nc(-c3ccco3)nn2C2(CCCCC2)[C@@H]2CCCC[C@@H]21	-1%	-9%
COc1cc2c(=O)n(C)c3ccccc3c2cc1OC	-7%	-17%
CC(NC(=O)COC(=O)/C=C/c1cccc(F)c1)c1ccccc1 (centres undefined)	i	-18%
CC(N=C1NS(=O)(=O)c2ccccc21)C(=O)NCc1ccncc1 (centres undefined)	i	4%

7 entries drawn at random from those above:
compound	Vaccinia mCherry	VACV Venus inh
Cc1ccc(S(=O)(=O)CCC(=O)OCC(=O)NC2CCS(=O)(=O)C2)cc1 (centres undefined)	-12%	-9%
COc1ccc(CCC(=O)O)c(C(CC(=O)O)C(=O)O)c1OS(=O)(=O)c1ccc(C)cc1 (centres undefined)	i	-9%
O=C(O)CCc1ccc(-c2cccs2)n1Cc1ccco1	-13%	1%
COc1cccc(N2C(=O)CSC23C(=O)N(CC(=O)NCc2ccc(C)cc2)c2ccccc23)c1 (centres undefined)	9%	1%
CS(=O)(=O)N1CCN(c2ccccc2NC(=O)c2cc3ccccc3o2)CC1	-13%	-2%
Cc1c(Cl)cccc1NC(=O)c1cc(-c2ccccc2O)n[nH]1	nt	?
COC(=O)C1=C(C(=O)OC)[C@@H]2N(C)c3ccc(OC)cc3[C@@]23C[C@@H](C(=O)OC)N(C(=O)c2cc(C)oc2C)C3=N1	-3%	-26%

Following part:
compound	Vaccinia mCherry	VACV Venus inh
CCCSc1nc(N2CCOCC2)c2c(c1C#N)CCCC2	-18%	-16%
CC(=O)C1C(c2cccc([N+](=O)[O-])c2)C2C(C)=NN=C2CC1(C)O (centres undefined)	-20%	-4%
CCC(=O)c1ccc(N2CCN(C(=O)COc3ccccc3F)CC2)c(F)c1	2%	-6%
Cc1ccc(F)c(S(=O)(=O)NC(=O)C2(C)CCN2C(=O)CC2CCCCC2)c1 (centres undefined)	i	16%
COc1ccc(NC(=O)CN(C)C(=O)c2ccc(NS(=O)(=O)c3ccc(F)cc3)cc2)cc1	-22%	-12%
Cc1ccc2oc(C(=O)Nc3ccc(S(=O)(=O)Nc4nccc(C)n4)cc3)cc(=O)c2c1	-8%	3%
COc1cccc(C2SCC(=O)N2c2ccc(Br)cc2)c1OC (centres undefined)	-14%	3%
Cc1ccccc1C(=O)OCCN(C)Cc1ccccc1	-5%	-8%
Cc1ccc(C(=O)NC2CCCc3ccccc32)cc1[N+](=O)[O-] (centres undefined)	-29%	-21%
Cc1csc(NC(=O)CSc2nc(C)cs2)n1	nt	-9%
O=C(Cc1coc(-c2ccc(F)cc2)n1)N1CCOCC1	nt	-7%
O=C(NNC(=O)c1ccccc1Br)c1ccc(Cl)c(Cl)c1	?	?
COc1ccc(C2=NOC(Cn3nc(-c4ccccc4)cc3C(=O)NCc3ccco3)C2)cc1 (centres undefined)	i	2%
Cc1ccc(C(=O)NCC(=O)OCc2nnc(-c3ccc([N+](=O)[O-])cc3)o2)s1	-21%	-7%
CC(C)(C)c1csc(NC(=O)C2=COCCO2)n1	-5%	-7%
CC(C)[C@H](NC(=O)C1CCN(S(=O)(=O)c2ccc(F)cc2)CC1)C(=O)NCc1ccco1	-14%[7.34 µM]	-1%[7.34 µM]
Cc1cccc(CSCCNC(=O)CSCc2ccc([N+](=O)[O-])cc2)c1	1%	3%
CCCCn1c(NS(=O)(=O)c2ccc(C)cc2)c(S(=O)(=O)c2ccccc2)c2nc3ccccc3nc21	i	1%
NS(=O)(=O)c1cccc(NC(=O)CSc2nc3ccccc3c(=O)n2Cc2ccco2)c1	-7%	-9%
CCc1ccccc1NC(=O)c1ccc2c(c1)CCN2S(C)(=O)=O	-10%	-7%&-9%

Single records (already shown):
CC(NC(=O)COC(=O)/C=C/c1cccc(F)c1)c1ccccc1 (centres undefined) across the screens: Vaccinia mCherry = i; VACV Venus inh = -18%
NS(=O)(=O)c1cccc(NC(=O)CSc2nc3ccccc3c(=O)n2Cc2ccco2)c1 across the screens: Vaccinia mCherry = -7%; VACV Venus inh = -9%

(more compounds)
compound	Vaccinia mCherry	VACV Venus inh
CCOc1ccc(CCNC(=O)CCn2c(=O)c3cccn3c3cccnc32)cc1	i	-16%
COc1ccc(CCNC(=O)Nc2ccc3c(c2)OCO3)cc1OC	i	-13%
c1ccc(COc2ncnc3c2ncn3CCCNCc2ccc3c(c2)OCO3)cc1	i	-19%
COc1cccc(N=Nc2c(N)[nH][nH]c2=O)c1	-29%	-14%
COc1cccc(C(=O)NCCN2CCC(n3c(=O)[nH]c4ccccc43)CC2)c1	-6%	3%
Cc1cccc(-c2c(NC(=O)c3ccco3)oc3c(C)cccc3c2=O)c1	-2%	3%
COC(=O)c1ccccc1NC(=O)c1ccc2c(c1)CCN2S(=O)(=O)c1ccc(Cl)cc1	-15%	-9%
OC(COc1ccc(Cl)cc1)CN1C2=NCCCN2c2ccccc21 (centres undefined)	nt	-44%
CCOc1cc(NC(=O)C2CC2)c(OCC)cc1NC(=O)c1cccc(F)c1	-4%	6%
O=C(NC1CCCC1)C1CC1c1ccccc1 (centres undefined)	-4%	-6%
COc1ccc(-n2c(-c3ccccc3)c[n+]3c2CCC3)cc1	-1%	-27%
CNc1ccc(/C=C(\CCC(=O)O)c2nc3ccccc3s2)cc1[N+](=O)[O-]	-5%	7%
COc1ccc(-c2nc(CNC(=O)NC3CCCCC3)c(C)o2)c(OC)c1	?	?
CC(C)c1cc(-c2nc(-c3ccc(Br)cc3)no2)n[nH]1	-14%	-21%
O=C(NCc1ccc(F)cc1)C(c1ccc(F)cc1)N(C(=O)c1csnn1)C1CC1 (centres undefined)	i	-5%
O=C(NCC1CCCO1)c1cc(-c2ccccc2)on1 (centres undefined)	?	-29%
CCOC(=O)c1c(C)c(-c2ccccc2)n(CC(=O)NC2CCCCC2)c1C	2%	3%
O=C(Nc1ccccc1)/C(=C/c1ccc([N+](=O)[O-])cc1)NC(=O)c1ccccc1	-6%	-3%
CCc1nn(CC(=O)NCc2ccccc2Cl)c(=O)c2cccn12	-24%&-7%	-7%&-5%
Oc1ccc(Br)cc1/C=N/Nc1nc(N2CCCCC2)nc(N2CCOCC2)n1	-20%	-1%
CC12C=CC(=O)C=C1CCC1C2C(=O)CC2(C)C1CCC2(O)C(=O)CO (centres undefined)	-3%	-14%
C#CCOCCOCCOCCNc1nc(N2CCN(C(=O)Cn3cc(CC(C)O)nn3)CC2)nc(N2CCN(C(=O)Cn3cc(CC(C)O)nn3)CC2)n1 (centres undefined)	i	5%
O=C(COc1ccc(S(=O)(=O)N2CCCCC2)cc1)NCc1ccncc1	nt	-17%
Cc1cc(-c2cc(C(=O)NC3CCCC3)on2)nc(NC2CCCC2)n1	-5%	-10%
O=C(NC(=S)N1CCOCC1)C12CC3CCC(CC(C3)C1)C2	-15%	-7%
CC(NC(=O)C1CCN(S(=O)(=O)c2ccc3nc4c(c(C(=O)O)c3c2)CCCC4)CC1)c1ccccc1 (centres undefined)	-12%	1%&-12%
CC1CCC/C(=N/Nc2ccc([N+](=O)[O-])cc2[N+](=O)[O-])C1 (centres undefined)	nt	-10%
Cc1ccccc1CN1C(=O)c2ccccc2Sc2ccc(C(=O)NC3CCCCC3)cc21	3%	-10%
O=C(NCc1ccccc1F)c1ccc2c(c1)OCCO2	-13%	-4%
Cc1ccc(-c2nc3cc(C)ccc3o2)cc1	-11%	-2%
COC(=O)c1oc2ccccc2c1NC(=O)/C=C/C(=O)O	i	0%
COC(=O)c1cnc(N2CCN(c3ccccc3F)CC2)c2ccccc12	-20%	-14%
O=C(O)c1ccc(N/N=C/c2cc3c(cc2[N+](=O)[O-])OCO3)cc1	-21%	-14%
CCCCn1c(N)c(N(CCOC)C(=O)c2cc(Cl)nc3ccccc23)c(=O)[nH]c1=O	-4%	-6%
Cc1nn(Cc2ccc(Cl)cc2)c(C)c1NC(=O)CSc1n[nH]c(C)c1[N+](=O)[O-]	-3%	-17%
N#C/C(=C/c1ccc(O)c(O)c1)c1nc2ccccc2[nH]1	?	-22%
CCn1c(SCC(N)=O)nc2cc(S(=O)(=O)N3CCOCC3)ccc21	-1%	-6%
CN(CCOc1ccccc1)C(=O)CCc1nc2sc3c(c2c(=O)[nH]1)CCCC3	i	-12%
COc1cccc(NC(=S)Nc2ccc(F)cc2)c1	-20%	2%
Cc1ccc(CNC(=O)CCn2cc(-c3ccc(C)cc3)nc2-c2ccncc2)cc1	?	-27%
COCCN1CN(S(=O)(=O)c2ccccc2)c2nc3ccccc3nc21	nt	-2%
CC(C)CSc1ncnc2c1oc1nc3c(cc12)COC(C)(C)C3	-4%	-9%
CC(C)Cc1nn2c(=O)cc(COC(=O)c3ccc(NC(=O)c4cccs4)cc3)nc2s1	i	-7%
COC(=O)C1CCN(Cc2ccc3c(c2)CN(C(=O)C2CCCN(c4ccccn4)C2)CCO3)CC1 (centres undefined)	i	-4%
Cc1cc(C)n(-c2ccc(F)cc2CN2CCN(Cc3ccccc3)C(CCO)C2)n1 (centres undefined)	-10%	-9%
COc1ccc(CCn2c3c(c(=O)[nH]c2=O)C(NC(=O)c2ccc(Cl)cc2)(C(F)(F)F)C(=O)N3)cc1OC (centres undefined)	-3%	-4%
COC(=O)c1cc(S(=O)(=O)NCC2CCN(CCc3cccs3)CC2)cn1C	-5%	-23%
CCn1c(=O)n(CC)c2cc([N+](=O)[O-])c(N3CCNCC3)cc21	-17%	-17%
COCCn1c(C)cc(C(=O)COC(=O)CCS(=O)(=O)c2ccc(C)cc2)c1C	-12%	4%
CCCCCN(C(=O)NC(=O)NC(C)CC)S(C)(=O)=O (centres undefined)	i	-11%
CC(=O)c1c(C)[nH]c(C(=O)OCc2ccc(Br)cc2)c1C	i	-19%
CC(=O)N1c2ccc(S(=O)(=O)NCC3CCC(C(=O)Nc4ncccc4C)CC3)cc2CC1C (centres undefined)	-28%	-7%
CCC(=O)Nc1ccc2c(c1)nc(CCNC(=O)c1ccco1)n2C	i	0%
Cc1ccc(-c2nc3ccccc3o2)cc1NC(=O)Cc1cccs1	nt	-5%
CCCCCNC(=O)C(=O)NCC(c1ccc2c(c1)OCO2)N1CCOCC1 (centres undefined)	-11%	-6%
CCOC(=O)c1ccc(N2CC3=C(C2=O)C(c2ccc(OC)cc2)NC(=O)N3C)cc1 (centres undefined)	?	?
COc1ccc(-n2c(CCC(=O)O)ccc2-c2ccc(F)cc2)c(OC)c1	-25%	-4%
O=P1(NC2CCCC2)OCC2(CO1)COP(=O)(NC1CCCC1)OC2 (centres undefined)	-13%	-3%
CC(C)(C)OC(=O)[C@H](Cc1ccccc1)NC(=O)c1[nH]cnc1C(=O)Nc1ccc(Cl)cc1	?	?
